KCNQ2 block – KCNQ2 potassium channel inhibitors, primary screen, cell-based, CHO-K1, FluxOR thallium flux, B-score (AID 2156) | O88943 | 20 min; active compounds read low; only compounds with negative scores are shown here; some inactives read as strong as hits | B-score at 10 µM | 1.1% of 310,000 active;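 active means fluorescence ratio B-score at most minus 3 library SDs, with starting brightness B-score within 2 library SDs, cut at about -5.5 in these data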
Target sequence (O88943 whole entry, looked up): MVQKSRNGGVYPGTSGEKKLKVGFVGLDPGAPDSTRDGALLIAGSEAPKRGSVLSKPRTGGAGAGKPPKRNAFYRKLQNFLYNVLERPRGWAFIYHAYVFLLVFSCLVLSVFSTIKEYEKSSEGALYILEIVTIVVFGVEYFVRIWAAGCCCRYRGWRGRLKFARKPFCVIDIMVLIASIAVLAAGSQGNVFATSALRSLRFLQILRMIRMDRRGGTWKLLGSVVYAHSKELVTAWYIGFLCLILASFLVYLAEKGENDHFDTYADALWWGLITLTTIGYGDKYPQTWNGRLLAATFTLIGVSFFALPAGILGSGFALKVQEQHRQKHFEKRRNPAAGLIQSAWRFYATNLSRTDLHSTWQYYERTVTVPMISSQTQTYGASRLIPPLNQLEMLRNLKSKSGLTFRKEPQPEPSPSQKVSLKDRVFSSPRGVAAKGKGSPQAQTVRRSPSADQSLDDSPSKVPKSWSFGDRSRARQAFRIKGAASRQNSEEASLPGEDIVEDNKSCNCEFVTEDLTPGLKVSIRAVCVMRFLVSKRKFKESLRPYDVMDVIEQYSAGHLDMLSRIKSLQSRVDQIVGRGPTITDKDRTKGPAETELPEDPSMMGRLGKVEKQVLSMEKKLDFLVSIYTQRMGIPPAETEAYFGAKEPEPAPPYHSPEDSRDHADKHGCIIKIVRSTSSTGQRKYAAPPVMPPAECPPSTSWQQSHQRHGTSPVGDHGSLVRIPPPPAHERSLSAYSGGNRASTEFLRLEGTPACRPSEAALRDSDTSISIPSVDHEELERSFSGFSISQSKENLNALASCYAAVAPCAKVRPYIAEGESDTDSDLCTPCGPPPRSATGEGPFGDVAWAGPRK
KCNQ2 block baseline – recorded beside KCNQ2 block, whose call it bears; B-score; measured here: initial fluorescence intensity artifact check;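 brightness before thallium and not channel activity; 0 = typical well and far values either way flag optical interference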
The depositor's hits bear a star; i = inactive.

Below each SMILES: KCNQ2 block baseline	KCNQ2 block
- c1cc(N2CCCC2)ccc1C(c1nnnn1C1CCCCC1)N1CCOCC1 (stereo not given)
    -2	i
- Cc1ccc(CNC(=O)Cn2ccc3cc(S(=O)(=O)N4CCCCCC4)ccc32)cc1
    -0.46	i
- O=C(OCC(=O)N1CCCCC1)c1cccc(NS(=O)(=O)c2ccccc2)c1
    0.58	i
- C=CCn1c(C)nc2c(cnn2-c2ccccc2)c1=O
    -0.32	i
- CS(=O)(=O)Nc1ccc(C(=O)Nc2ccccc2Sc2ccccc2)cc1
    0.34	i
- CC(C(=O)NCC1CCCCC1)N(C)Cc1ccc(Br)cc1 (stereo not given)
    0.36	i
- Cc1c(C(=O)N2CCC[C@H]2C(N)=O)oc2c(F)cccc12
    -2.9	i
- CCN(CC)c1ccc(N=Cc2ccc(N(CC)CC)cc2O)cc1
    3	i
- CCOc1ccc(S(=O)(=O)NCc2ccc(OC)cc2)c2cccnc12
    -3	i
- COc1cc(SC)ccc1C(=O)NCC1CCCCC1
    2.4	i
- COc1ccc(S(=O)(=O)Nc2ccccc2C(N)=O)cc1OC
    2.1	i
- COc1ccc(/C=C/C(=O)N/C(=C\c2ccco2)C(=O)NCCc2nc3ccccc3[nH]2)cc1
    1.2	i
- CCC(=O)Nc1ccc(C(=O)N/N=C/c2c(C)[nH]c3ccccc23)cc1
    -0.61	i
- CC(=O)NN1C(=O)c2ccccc2NC1c1ccccc1F (stereo not given)
    1.4	i
- CCc1ccc(OCCCC(=O)Nc2cccc(C(=O)O)c2)cc1
    3.5	i
- O=C(CS(=O)(=O)c1ccc(Cl)c(Cl)c1)Nc1ccccc1Cl
    -0.79	i
- O=C(CN1C(=O)COc2ccc(S(=O)(=O)N3CCCC3)cc21)NC1CC1
    -0.3	i
- O=C(NCc1ccc(Cl)cc1)C(=O)N/N=C/c1ccc(Br)cc1
    0.64	i
- Cc1cccc(C)c1N1CCN(S(=O)(=O)N2CCCCC2)CC1
    -0.05	i
- C=CCNc1nc2ccccc2nc1NS(=O)(=O)c1cccc(C)c1
    -1.1	i
- c1ccc(Cc2noc(CN3CCN(C4CCc5ccccc5C4)CC3)n2)cc1 (stereo not given)
    -0.69	i
- CCN(CC)S(=O)(=O)c1ccc(Cl)c(C(=O)NCc2ccccc2Cl)c1
    -0.17	i
- CC(C)N(Cc1ccccc1)C(=O)CN1C(=O)c2ccccc2C1=O
    -0.11	i
- C#CC(CC)(CC)NC(=O)NC1CCCCC1
    -0.46	i
- c1ccc(CNc2nc3ccccc3n3cnnc23)nc1
    -3.1	i
- COc1ccc(NC(=O)c2cn(CCC#N)nc2-c2cc3ccccc3o2)cc1
    1.1	i
- Cc1ccc(-c2csc(N(CCO)CCCn3c(C(F)(F)F)nc4ccccc43)n2)cc1
    -2.2	i
- Cc1ccc(S[C@@H](CCN2CC[C@H](C(C)(C)C)CCC2=O)c2ccccc2)cc1
    -0.53*	-5.8*
- Cc1ccc(C)n1-c1ccc(N2CCOCC2)cc1
    -0.78	i
- COc1ccc(C(=O)NCCc2nnc(SCC(=O)Nc3ccccc3F)n2C)cc1
    0.65	i
- Cc1ccccc1Cn1c(C)nc2ccc([N+](=O)[O-])cc2c1=O
    -0.07	i
- CCOc1cccc(=O)c2c(C)n(CC3CCCO3)c(C)c12 (stereo not given)
    -0.11	i
- Cc1ccc(NS(=O)(=O)c2ccc(OCC(=O)N3CCOCC3)cc2)cc1
    1.3	i
- Nc1ccc(NC(=O)c2ccccc2)c2c1C(=O)c1ccccc1C2=O
    -0.64	i
- C[C@@H](C(=O)N[C@H](C(=O)O)c1ccccc1)n1nnc2ccccc2c1=O
    2.2	i
- Cc1ccc(OCc2nnc(SCC(=O)C(C)(C)C)n2Cc2ccco2)cc1
    0.02*	-7*
- Cc1ccccc1C(=NC(=O)c1ccccc1)c1ccccc1
    1*	-8.5*
- CC(=O)Nc1ccc2c3c(cccc13)C(=O)N(c1ccccc1)C2=O
    1	i
- CCCCOc1ccccc1C(=O)N(Cc1ccco1)C1CCS(=O)(=O)C1 (stereo not given)
    0.55	i
- CC(C)c1ccc(CN(C(=O)C2COc3ccccc3O2)C2CCS(=O)(=O)C2)cc1 (stereo not given)
    -0.26	i
- COc1ccc(C(=O)NCCSCc2cccc(Cl)c2)cc1OC
    0.04	i
- COc1cccc(C(=O)NCCS(=O)(=O)NCCCc2ccccc2)c1
    0.16	i
- Cc1ccc(OS(=O)Nc2cccc3nccnc23)cc1 (stereo not given)
    -0.09	i
- Cc1csc2nc(CNC(=O)C3CCCCC3)cn12
    0.17*	-8.8*
- CC(=O)n1cc([C@H]2C=C(C(=O)Nc3ccccc3)O[C@@H](OCc3ccc(CO)cc3)C2)c2ccccc21
    -1.9	i
- COC(=O)c1nn(-c2ccc(Cl)cc2)c(=O)cc1Sc1ccccn1
    2.6	i
- N/C(=N\OC(=O)c1ccc2ccccc2c1)c1ccccc1Cl
    -1.8	i
- COc1ccc(S(=O)(=O)N2CCCCCC2)cc1NC(=O)c1c2c(nc3ccccc13)CCN(Cc1ccccc1)C2
    -0.13	i
- CCOc1ccc(S(=O)(=O)N(CCO)CCO)cc1-c1nc2c(C(C)(C)C)nn(C)c2c(=O)[nH]1
    1.2	i
- Cn1nc(-c2ccc(Cl)cc2)c2cc(C(=O)NCc3ccco3)sc21
    0.04	i
- CC(C)(C)NC(=O)N1c2ccccc2Sc2ccccc21
    0.03	i
- COc1ccc(-c2ccc(NS(=O)(=O)c3cc([N+](=O)[O-])ccc3C)cc2)nn1
    -0.66	i
- COc1ccc(CN(C)S(=O)(=O)c2nnc(NC(=O)c3ccccc3)s2)cc1OC
    0.2	i
- Cc1ccn2cc(C(=O)NCc3ccco3)nc2c1
    2.9	i
- Cc1cccc(N2CCN(C(=O)c3ccc(NS(=O)(=O)c4ccc5[nH]c(=O)[nH]c5c4)cc3)CC2)c1C
    1.1	i
- COc1ccc(NC(=O)CN(C)C(=O)c2oc3ccccc3c2C)cc1
    -1.8	i
- CCc1ccc2c(c1)cc(CN(C(=S)Nc1ccc(Cl)cc1)C1CC1)c1nnnn12
    0.56	i
- CCS(=O)(=O)c1ccc2c(c1)N(S(=O)(=O)c1ccc(Cl)cc1)CC(C(=O)O)O2 (stereo not given)
    -2.4	i
- O=C(Cn1c(=O)sc2ccccc21)Nc1ccc2c(c1)OCCO2
    -0.01	i
- C1=C2C[N+]3(CCCC3)CC2Cc2ccc3ccccc3c21 (stereo not given)
    -0.06	i

The results go on:
Below each SMILES: KCNQ2 block baseline	KCNQ2 block
- CC(C)(Oc1ccc(Cl)cc1)C(=O)NCC(c1ccco1)N1CCCCC1 (stereo not given)
    -0.67	i
- N#Cc1ccccc1NC(=O)CSc1nnc(-c2ccccc2O)n1-c1ccccc1
    -1.4	i
- CC1CN(CCCCOc2cccc(Oc3ccccc3)c2)CC(C)O1 (stereo not given)
    1.2	i
- CCn1nc(C)c(C2C(C#N)=C(N)OC3=C2C(=O)CCC3)c1C (stereo not given)
    -0.64	i
- CCCNc1nc(N)nc(-c2cc(Cl)ccc2OC)n1
    -1.5	i
- Cc1ccc(-n2ncc3c(=O)n(CC(=O)NC4CCCCC4)cnc32)cc1C
    0.41	i
- NNC(=O)C1=NOC2COC3(CCN(c4ncccn4)CC3)OCC12 (stereo not given)
    0.02	i
- c1ccc(Cn2nnc(-c3ccccc3)n2)cc1
    0.19	i
- O=C(CCC(=O)N1CCN(c2ccc(O)cc2)CC1)c1ccc(Br)cc1
    0.15	i
- COCCCN1CN=C(Nc2nc3ccccc3o2)NC1
    0.98	i
- CC(Cl)C(=O)NN=C(c1ccccc1)c1ccccc1 (stereo not given)
    -0.45	i
- CCOCCCNC(=O)/C(C#N)=C/c1cc(C)c(O)c(C)c1
    0.72	i
- COc1ccc(Nc2ncccc2C(=O)NCc2ccccc2)cc1
    0.82	i
- CCC(=O)N1CCc2cc(Br)cc(S(=O)(=O)N3CCC(C(=O)NCCCOC(C)C)CC3)c21
    1.4	i
- CC(C)Cc1nnc(NS(=O)(=O)c2ccc(Cl)cc2)s1
    -0.23	i
- Cc1cccc2cc(CN(Cc3cccnc3)C(=S)NCCCN(C)C)c(=O)[nH]c12
    -0.04	i
- COc1cccc2c1NC(C(=O)O)C1CC=CC21 (stereo not given)
    -0.35	i
- CN1/C(=c2/s/c(=C3/C(=O)N(c4ccccc4)NC3=Nc3ccccc3)n(C)c2=O)C(C)(C)c2ccccc21
    -0.93*	-7.7*
- Cc1ccc(Nc2ccccc2N)cc1
    -3.2	i
- COCCCN1C(=O)C(=O)/C(=C(/O)c2ccccc2)C1c1ccc2c(c1)OCO2 (stereo not given)
    -1.7	i

Three entries already listed, arranged by molecular weight, falling.
Below each SMILES: KCNQ2 block baseline	KCNQ2 block
- Cc1cccc2cc(CN(Cc3cccnc3)C(=S)NCCCN(C)C)c(=O)[nH]c12
    -0.04	i
- Cc1ccc(-n2ncc3c(=O)n(CC(=O)NC4CCCCC4)cnc32)cc1C
    0.41	i
- NNC(=O)C1=NOC2COC3(CCN(c4ncccn4)CC3)OCC12 (stereo not given)
    0.02	i

Next part:
Below each SMILES: KCNQ2 block baseline	KCNQ2 block
- COc1ccccc1C(c1nnnn1Cc1ccccc1)N1CCC(C(N)=O)CC1 (stereo not given)
    -0.05	i
- COc1ccc(N2CCN(CC(=O)Nc3ccc(SC(F)F)cc3)CC2)cc1
    -0.94	i
- Cc1cc(-c2ccc(/C=N/n3cnnc3)o2)c([N+](=O)[O-])cc1C
    -2.2	i
- C=CCSC1=C(C#N)C(c2ccc(C(C)C)cc2)CC(=O)N1 (stereo not given)
    2.8	i
- CCCCOc1ccc(-c2nnc(N)s2)cc1
    -1.6	i
- Cc1cccc(Nc2nc(-c3ccccc3)c(C(=O)Nc3cccnc3)s2)c1
    -0.52	i
- COc1ccccc1Nc1nc(-c2cccc([N+](=O)[O-])c2)nc2ccccc12
    -0.76	i
- CC1=NN(c2ccccc2)C(=O)C1C=Nc1ccccc1O (stereo not given)
    -0.03	i
- O=C(NCCc1ccc2c(c1)OCCO2)c1cccc(F)c1
    1.9	i
- CCN(c1ccccc1)S(=O)(=O)c1cc2c(cc1C)NC(=O)CO2
    -0.16	i
- Cc1ccc(N(C(=O)Cn2nnc3ccccc32)C(C(=O)NCc2ccco2)c2ccc(C)o2)cc1 (stereo not given)
    -1	i
- CCCCCc1cc(=O)oc2c(C(CCN3CCCC(C)C3)c3ccc(OC)cc3)c(OC)cc(OC)c12 (stereo not given)
    -0.33	i
- O=C(N/N=C/c1ccncc1)c1ccc2c(c1)OCO2
    -0.93	i
- CC(C)(C)c1ccc(/C=C(\C#N)C(=O)NCCN2CCOCC2)cc1
    -0.29	i
- O=C(CCN1C(=O)c2ccccc2C1=O)N1CCN(C2c3ccccc3-c3ccccc32)CC1
    0.39	i
- Cc1ccccc1NC(=O)CSc1ccc(-c2cccnc2)nn1
    0.57	i
- O=C(Cc1ccccc1)Nc1nc2ccccc2[nH]1
    2.1	i
- N#Cc1c(NC(=O)CCCN2C(=O)c3ccccc3C2=O)oc(-c2ccccc2)c1-c1ccccc1
    -0.5	i
- O=C(COC(=O)c1ccccc1-c1ccccc1[N+](=O)[O-])c1ccccc1
    -0.06	i
- CS(=O)(=O)Nc1ccc(N2CCN(c3ccc(C(F)(F)F)cn3)CC2)nc1
    1.2	i
- CCCOc1ccc(C(=O)C(CN2CCOCC2)c2ccccc2)cc1 (stereo not given)
    -0.89	i
- COCCCN=CC1=C(O)CC(C)(C)CC1=O
    0.42	i
- CCOc1ccccc1NC(=O)C1C2C=CC(O2)C1C(=O)O (stereo not given)
    -0.13	i
- O=C(CCC(=O)c1cccs1)NCc1cccc(Cl)c1
    -0.4*	-6.3*
- CCOC(=O)c1c(CC(C)C)csc1NC(C)=O
    -0.6	i
- C=C(C)Cn1c(SCC(=O)O)nnc1-c1ccc(C(C)(C)C)cc1
    -0.58	i
- CC(CN1CCOCC1)OC(=O)c1ccccc1Br (stereo not given)
    1.4	i
- COc1cccc(C(=O)OCC(=O)NCCCc2ccccc2)c1
    0.33	i
- COC(=O)c1cccc(NC(=S)Nc2cccc(Cl)c2C)c1
    -0.02	i
- CCOC(=O)c1sc(NC(=O)C(C)Sc2nc(N)cc(=O)[nH]2)nc1C (stereo not given)
    -0.09	i
- CN(C)S(=O)(=O)c1cc(NC(=O)COC(=O)Cc2ccc(Cl)cc2Cl)ccc1Cl
    0.8	i
- Cc1nn(-c2ccc(F)cc2F)c(=O)c2noc(C)c12
    -1.7	i
- Cn1c(C(O)c2ccccc2F)nc(Cl)c1Cl (stereo not given)
    -0.05	i
- Fc1ccc(-n2c(=S)[nH]c3cccnc32)cc1
    -0.17	i
- COc1cc2cc(C(c3nnnn3C3CCCC3)N3CCCCC3)c(=O)[nH]c2cc1OC (stereo not given)
    -0.99*	-7*
- O=C1CCCN1CCCNC(=S)Nc1ccc(F)c(Cl)c1
    -0.46	i
- Cc1cc2ccccn2c1C(=O)c1ccccc1F
    1.6	i
- COC(=O)C1=C(C)NC(=O)/C1=C\c1cc(C)n(-c2cc(C)cc(C)c2)c1C
    -0.96	i
- COc1ccc(/C=C/C(=O)N(C)C2CCCCC2)cc1Br
    2.7	i
- CCN(CC)C(=O)c1ccccc1NC(=O)c1cccc(S(=O)(=O)N(CC)CC)c1
    0.05	i

Quoted from the listing:
Result of COc1cccc(C(=O)OCC(=O)NCCCc2ccccc2)c1 in KCNQ2 block baseline: 0.33
Result of O=C1CCCN1CCCNC(=S)Nc1ccc(F)c(Cl)c1 in KCNQ2 block baseline: -0.46
Result of COc1ccc(/C=C/C(=O)N(C)C2CCCCC2)cc1Br in KCNQ2 block baseline: 2.7
Result of Fc1ccc(-n2c(=S)[nH]c3cccnc32)cc1 in KCNQ2 block baseline: -0.17
Result of CCOC(=O)c1c(CC(C)C)csc1NC(C)=O in KCNQ2 block baseline: -0.6
Result of CCN(CC)C(=O)c1ccccc1NC(=O)c1cccc(S(=O)(=O)N(CC)CC)c1 in KCNQ2 block baseline: 0.05

From PubChem

The list is partial; count on the stated rates, not on these rows.
